# Compound activity: PubChem, several laboratories
# PABP FP inh = PABP-poly(A) binding inhibition | P11940 | PABP-poly(A) RNA binding, fluorescence polarization | inhibition, % at 35 µM | hit rate 1% among 290,000 | AID 2014;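 active = 50% or more with normal probe brightness, or confirmed in later tests; about a fifth of its hits are not listed in these tables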;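 note: calls also rest on retests at 20 µM and on dose response follow-up; controls were probe without protein and protein plus probe with vehicle; some compounds called inactive have numbers as strong as hits; many hits fall short of the cut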
# Target sequence (P11940 whole entry, looked up): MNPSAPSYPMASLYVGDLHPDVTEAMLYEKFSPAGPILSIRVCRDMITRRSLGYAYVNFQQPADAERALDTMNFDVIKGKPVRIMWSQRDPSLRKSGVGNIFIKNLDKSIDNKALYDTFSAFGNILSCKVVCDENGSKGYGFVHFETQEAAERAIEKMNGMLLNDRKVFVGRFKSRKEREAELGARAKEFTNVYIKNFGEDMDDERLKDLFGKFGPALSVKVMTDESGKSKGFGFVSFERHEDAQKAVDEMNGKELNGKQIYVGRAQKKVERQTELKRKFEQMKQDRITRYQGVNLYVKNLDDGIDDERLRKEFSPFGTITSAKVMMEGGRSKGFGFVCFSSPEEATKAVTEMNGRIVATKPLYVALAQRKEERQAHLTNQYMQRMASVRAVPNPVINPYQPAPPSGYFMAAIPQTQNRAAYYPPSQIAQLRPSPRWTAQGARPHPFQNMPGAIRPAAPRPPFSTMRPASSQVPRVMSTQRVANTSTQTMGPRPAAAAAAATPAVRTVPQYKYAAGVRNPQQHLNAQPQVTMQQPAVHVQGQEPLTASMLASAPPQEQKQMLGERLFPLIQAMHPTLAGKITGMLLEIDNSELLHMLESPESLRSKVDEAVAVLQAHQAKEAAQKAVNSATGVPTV
# MT1-MMP act inh = blocks activation of human MT1-MMP; HT1080 RFP-PRO-GFP cells, GFP/RFP ratio fluorescence, overnight; percent of plate control window, DMSO zero; AID 651647; hit rate 0.061% among 360,000; P50281; GFP/RFP ratio change, % at 20 µM;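 active = GFP/RFP ratio change of at least 30% with cell ATP level not reduced by more than half and red fluorescence within 50% of control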; note: strong numbers were not always called active
#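 Assay system: HT1080 cells carrying an RFP-PRO-GFP reporter | Dosing: Single dose of 20 µM compound, 1% DMSO final | Incubation: Cells overnight before dosing, compound overnight, 37 °C, 5% CO2 | Evaluation: GFP/RFP fluorescence ratio | Control set: DMSO and RFP-L50D-GFP cell wells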
# Yeast UUG start = yeast start codon fidelity modulation | S. cerevisiae UUG-firefly luciferase reporter, luminescence/redox ratio | activity score, % at 18.7 µM | hit rate 0.13% among 350,000 | AID 602363;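 active = replicate mean at a twofold rise or more, about +100% in these data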;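 note: firefly luciferase made from a UUG start codon reports start codon fidelity; reporter light over untreated wells divided by growth signal over untreated wells; some hits fall short of that in this replicate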
# Rce1 inhib = inhibitors of yeast Ras-converting enzyme; calls only; hit rate 0.27% among 290,000; AID 2563; yeast membranes, quenched prenylated peptide cleavage fluorescence;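 active = fall in fluorescence gain of 50% or more versus controls, with final raw signal at or below 3038400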;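 note: plate controls were neutral control wells for no effect and wells lacking membranes for full effect; tested at 10 µM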
# Target sequence (Q03530 whole entry, looked up): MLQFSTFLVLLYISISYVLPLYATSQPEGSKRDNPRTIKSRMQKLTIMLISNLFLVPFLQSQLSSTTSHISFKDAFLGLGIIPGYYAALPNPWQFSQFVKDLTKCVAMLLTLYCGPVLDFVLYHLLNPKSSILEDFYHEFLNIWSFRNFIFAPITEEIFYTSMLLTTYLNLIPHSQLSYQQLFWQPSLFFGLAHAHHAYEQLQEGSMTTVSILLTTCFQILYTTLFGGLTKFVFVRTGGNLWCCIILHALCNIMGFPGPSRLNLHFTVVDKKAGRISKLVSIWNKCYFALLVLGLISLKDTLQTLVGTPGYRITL
# Env fusion inh = inhibitors of HIV Env-mediated cell fusion; HeLa-JRFL Env/CEM21 cell fusion, luciferase; hit rate 1.1% among 360,000; inhibition, % at 12.3 µM; AID 651610;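 active = mean replicate inhibition score of at least 50 and every replicate individually at or above 50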;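 note: 0% = plate neutral controls and 100% = maraviroc near 300 nM; one replicate is shown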
# eIF4H inh = inhibitors of RNA binding by human eIF4H | Q15056 | eIF4H fluorescence polarization binding assay | inhibition, % at 35 µM | hit rate 0.94% among 290,000;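 active = 50% or more with normal probe brightness, or confirmed in later tests; about a fifth of its hits are not listed in these tables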;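 note: calls also rest on retests at 20 µM and on dose response follow-up; 0% = protein and probe with vehicle and 100% = probe without protein; strong numbers were not always called active; many hits fall short of the cut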
# CSC inhib = blocks cancer stem cells | cancer stem cell-like cells viability, luminescence | hit rate 1.1% among 300,000 | inhibition, % at 7.5 µM;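 active = mean at 75% or more and at least half the replicates too; tested in HMLE shEcad cells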;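 note: 0% = median of negative and 100% = median of positive control wells; the first replicate is given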
# eIF4H inh retest = further read-out of eIF4H inh, marked with its call; inhibition, %; compound at 20 µM; confirmation average;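 mean of two retest wells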
# PABP FP inh retest = recorded beside PABP FP inh, whose call it bears; inhibition, %; compound at 20 µM; confirmation repeats;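 mean of two retest wells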
# MT1-MMP act inh RFP = also measured in MT1-MMP act inh; calls as there; RFP signal change, %; measured here: RFP expression control read;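 0 = vehicle wells; hits needed this value within 50% of zero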
# * marks the source's active call; other numbers are inactive results; i = inactive; · = no result given.
SMILES,PABP FP inh,MT1-MMP act inh,MT1-MMP act inh RFP,Yeast UUG start,Rce1 inhib,Env fusion inh,eIF4H inh,CSC inhib,others
CCOC(=O)CSc1nnc(CNC(=O)c2ccc(S(=O)(=O)N3CCOCC3)cc2)n1C,-6,5,7,·,i,-4,-3,-5,
C/[N+]([O-])=C\c1coc2ccccc2c1=O,10,1,6,-23,i,·,7,-16,
NNC(=O)[C@@H]1C[C@@H]1c1ccccc1,-13,-1,5,·,i,-17,-6,-10,
Cc1ccc(S(=O)(=O)N2CCN(C(=O)COC(=O)CCOc3ccccc3C)CC2)cc1,·,-1,2,12,i,-8,·,·,
Cc1cccc(N2C(=O)CC(SC(N)=Nc3ccccc3)C2=O)c1 (stereo unspecified),5,-1,-1,·,i,7,-3,-4,
COc1ccc(NS(=O)(=O)c2cccc(C(=O)NNC(=O)c3cccc(NC(C)=O)c3)c2)cc1,·,0,-1,-25,i,-9,·,-6,
CNC(=O)c1c(O)c2cccc3c2n(c1=O)CCC3,-2,0,10,9,i,5,-6,·,
c1ccc(N2CCN(c3nc(NCc4ccco4)c4ccccc4n3)CC2)cc1,-5,2,-12,-27,i,·,4,46,
CC(=O)N(C(C)=O)N1C(=O)C2C3c4ccccc4C(c4ccccc43)C2C1=O (stereo unspecified),1,-7,-4,·,i,-10,-3,-6,
O=c1c2ccccc2[nH]c(=S)n1CC1CCCO1 (stereo unspecified),·,-3,-3,-16,i,·,·,-1,
OCCCNCc1ccc(N(c2ccccc2)c2ccccc2)cc1,-11,-2,-3,-7,i,25,4,45,
COc1ccccc1/C=C/C(=O)OCCN1CCOCC1,1,1,0,-15,i,25,-3,-9,
COc1ccc(C(C(=O)NC(C)(C)C)N(C(=O)CCC(=O)Nc2cc(C)on2)c2cc(C)cc(C)c2)cc1 (stereo unspecified),1,0,3,-21,i,-17,-9,·,
O=C(CCNC(=O)c1ccco1)NCc1ccccc1,10,3,3,12,i,·,-5,7,
CCN(Cc1ccccc1)C(=O)c1cc(COc2c(F)cccc2F)on1,-2,0,0,7,i,5,2,11,
CC(C)(C)C1CCc2onc(C(=O)N3CCOCC3)c2C1 (stereo unspecified),9,3,1,0,i,5,-3,-10,
Cc1cc(NC(=O)CSC2=Nc3ccccc3C3=NC(Cc4ccccc4)C(=O)N23)n[nH]1 (stereo unspecified),-19,2,1,-8,i,-63,1,-1,
CC(=O)C[C@H](O)CC(=O)[C@H]1OC(=O)CC/C=C\Cc2ccccc21,·,-6,2,5,·,-34,·,15,
COc1nc(OC)nc(N2CCC(C(=O)NC3CCCCCC3)CC2)n1,5,23,2,-13,i,6,12,0,
CCn1c2ccccc2c2cc(NC(=O)c3cc(OC)c(OC)c(OC)c3)ccc21,0,27,-8,-6,i,·,0,·,
Cc1cccc(OCCn2c(S(=O)(=O)O)nc3ccccc32)c1,-19,2,0,-24,i,·,-2,-3,
COC(=O)c1ccc(CSc2nnc(C)n2N)o1,4,2,5,·,i,-10,-4,-31,
COc1cccc(N2CC(NS(=O)(=O)c3cccs3)CC2=O)c1 (stereo unspecified),·,2,3,·,i,1,·,-5,
COc1ccccc1Nc1c2c(nc3ccccc13)CCC2,-3,-12,-17,-20,i,27,-8,70,
NNC(=O)Cn1nnc(-c2ccc(C(F)(F)F)cc2)n1,4,-1,2,-18,i,2,-2,-2,

# Filtered by structure: the entries above with a tert-butyl group (2)
SMILES,PABP FP inh,MT1-MMP act inh,MT1-MMP act inh RFP,Yeast UUG start,Rce1 inhib,Env fusion inh,eIF4H inh,CSC inhib,others
COc1ccc(C(C(=O)NC(C)(C)C)N(C(=O)CCC(=O)Nc2cc(C)on2)c2cc(C)cc(C)c2)cc1 (stereo unspecified),1,0,3,-21,i,-17,-9,·,
CC(C)(C)C1CCc2onc(C(=O)N3CCOCC3)c2C1 (stereo unspecified),9,3,1,0,i,5,-3,-10,

# (continued)
SMILES,PABP FP inh,MT1-MMP act inh,MT1-MMP act inh RFP,Yeast UUG start,Rce1 inhib,Env fusion inh,eIF4H inh,CSC inhib,others
Cc1cc(C)cc(NC(=O)CCc2c(C)nn(-c3ccc(N4CCOCC4)nn3)c2C)c1,7,-2,-3,-12,i,-10,-4,-19,
COc1cc(Cn2c3ccc(NC(=O)CCc4cccnc4)cc3c(=O)n2C)ccc1F,·,-4,-7,-1,·,38,·,·,
Cc1ccc(OCC(=O)N/N=C2/SCC(=O)N2Cc2ccccc2)cc1,1,-2,-1,·,i,-20,-9,-1,
Cc1c(NC(=O)c2ccc3c(c2)C(=O)N(Cc2ccco2)C3=O)cccc1C(=O)O,-11,-2,2,·,i,-6,-2,-4,
O=c1oc2ccccc2c(O)c1/C=N/c1ccccn1,8,-6,-2,-13,i,·,17,5,
COc1ccc(C(C(=O)NC2CCCCC2)N(C(=O)c2sc(C)nc2C)c2ccc(C(C)=O)cc2)cc1 (stereo unspecified),-5,0,0,·,i,·,-9,-10,
C=CCn1c(=NC(=O)CN2C(=O)CCC2=O)sc2cc(S(N)(=O)=O)ccc21,-2,1,3,-11,i,-6,-9,-8,
CC(=O)N1CCN(C(=O)c2ccc(NS(=O)(=O)c3ccc4c(c3)OCCO4)cc2)CC1,·,-7,-5,-7,i,-2,·,-9,
O=C(Nc1ncccc1O)c1ccc(S(=O)(=O)N2CCCCCC2)cc1,·,11,4,-17,i,4,·,-9,
Cc1ccc(S(=O)(=O)N(C)S(=O)(=O)c2ccc(C#N)cc2)cc1,5,·,·,·,i,·,-5,-17,
CC1(C)Cc2c(sc3nc(-c4ccccc4)oc(=O)c23)CO1,10,0,6,·,i,-30,13,11,
O=C(COC(=O)CNC(=O)c1ccccc1F)Nc1ccc2[nH]c(=O)[nH]c2c1,·,-3,-1,-13,i,-5,·,-7,
COCCNC(=O)C(=O)N/N=C(\C)CC(=O)Nc1ccc2c(c1)OCO2,2,2,5,·,·,4,1,-11,
CCC(C)NC(=O)c1ccc2c(c1)S(=O)(=O)c1ccccc1C2=O (stereo unspecified),8,-4,-5,-14,i,4,-4,·,
Brc1cc2c(cc1Br)OCCOCCOCCO2,-2,-4,-4,-21,i,4,-9,-2,
CCCCC[C@H]1CN(CCc2ccccc2)C(=O)[C@@H]1CC(=O)NCc1ccc(OC)cc1,15,0,-10,-15,i,26,-3,5,
CCCc1nc2n[nH]c(N)c2c2c1CCCC2,0,25,-3,-13,i,·,-2,3,
Cn1c(-c2sccc2OCc2cccc(C(F)(F)F)c2)n[nH]c1=S,-8,3,-14,·,i,63*,2,-14,
COc1ccccc1Cn1c(=S)[nH]c2cc(C(=O)N3CCN(C)CC3)ccc2c1=O,-1,2,3,-23,i,·,-5,14,
O=C(NNC(=O)c1ccco1)Nc1ccccc1,2,-4,0,-12,i,3,-5,-3,
Fc1ccccc1N=C1Nc2cccc3cccc1c23,-11,-4,-7,·,i,21,-4,-1,
COc1cc2[nH]c(O)c(C=O)c2cc1OC,·,1,1,6,·,-2,·,·,
CCc1[nH]nc(C(=O)N2CCCC(CCC(=O)N3CCN(c4ccccn4)CC3)C2)c1C (stereo unspecified),4,2,0,-23,i,-1,-8,-5,
CCCCCN(C(=O)CCC(=O)OCC(=O)Nc1ccc(C)cc1F)c1c(N)n(CCCC)c(=O)[nH]c1=O,16,0,-2,8,i,·,-9,·,
O=c1[nH]c(C2CCN(S(=O)(=O)c3ccc4c(c3)OCCO4)CC2)nc2c1nnn2Cc1ccccc1F,5,-7,0,-6,i,-1,-10,8,

# (next part)
SMILES,PABP FP inh,MT1-MMP act inh,MT1-MMP act inh RFP,Yeast UUG start,Rce1 inhib,Env fusion inh,eIF4H inh,CSC inhib,others
COc1cccc(C(=O)NC2CC(C)(C)NC(C)(C)C2)c1OC,1,-5,-1,-3,·,15,-1,-10,
Cc1ccc(NC(=O)CCc2nnc3ccc(NCc4ccco4)nn23)nc1,9,2,-1,-4,i,-30,6,-16,
CCCc1n(CC(O)COCC2CC=CCC2)c2ccccc2[n+]1C (stereo unspecified),68*,-1,-1,-20,i,0,6,-11,
CCOC(=O)C1CCN(C(=O)CC(C)c2ccccc2)CC1 (stereo unspecified),-4,2,-2,·,i,-37,6,4,
CCC(=O)Nc1ccc(-c2ccc(N3CCC(C)CC3)nn2)cc1,2,4,1,-22,i,·,-6,27,
Cc1ccc(S(=O)(=O)N(CC(=O)NCc2ccc(F)cc2)C(=O)N2CCN(C)CC2)cc1,·,-1,7,-6,i,-55,·,-9,
COc1cccc(C2CC3(CC(C)(C)NC(=S)N3)Oc3cc(O)ccc32)c1 (stereo unspecified),-4,17,-4,·,i,·,13,·,
COc1cc(C(=S)N2CCCC2)cc(Cl)c1O,5,0,2,-31,i,-12,-3,-13,
O=C(CCn1ccc2ccccc21)NC1CCCc2ccccc21 (stereo unspecified),-8,-5,-2,·,i,·,-9,-1,
Cc1nnc(OC(C)C)c2nn(-c3ccccc3F)c(C)c12,-4,-1,-3,-15,i,·,-1,-3,
COc1cccc(/C=C/C(=O)OCC(=O)N2c3ccccc3NC(=O)C2(C)C)c1,1,0,0,·,i,0,-7,12,
FC(F)(F)c1cnc(NNC(=S)Nc2cccnc2)c(Cl)c1,7,-1,-7,-32,i,3,2,14,
O=[N+]([O-])c1cc(C(F)(F)F)ccc1N1CCN(S(=O)(=O)c2ccc3c(c2)CCCC3)CC1,4,0,-27,-9,i,·,2,6,
O=C(CSc1ccc(Br)c2cccc(Cl)c12)Nc1ccc(S(=O)(=O)Nc2nccs2)cc1,7,15,7,·,i,-6,63,-19,eIF4H inh retest=42;PABP FP inh retest=8
COc1cccc(OC)c1C(=O)N1CCN(Cc2ccncc2)CC1,-3,-1,-1,-13,i,-6,-24,-25,
Cc1ccc(NCC(=O)N/N=C/c2ccc(C(=O)O)cc2)cc1,10,6,5,4,i,-6,4,·,
O=C(OCCOCn1cc(Br)c(=O)[nH]c1=O)c1ccccc1,·,-3,-1,-12,i,4,·,-9,
COC(=O)c1ccc(NC(=O)c2ccccc2C(=O)Nc2ccc(C(=O)OC)cc2)cc1,·,2,-2,·,i,4,·,0,
CCC(=O)Nc1cc(C(=O)O)ccc1Sc1ccc(C)cc1,0,-3,-2,·,i,16,-15,-4,
O=C(C1CCC(=O)N(C2CCCC2)C1)N1CCC(Oc2ccccc2Cl)CC1 (stereo unspecified),-11,0,-10,32,i,11,-14,0,
O=S1(=O)NC(=NCCc2ccccn2)c2ccccc21,4,2,2,·,i,-19,-8,-22,
Cn1c(=O)oc2cc(S(=O)(=O)N3CCCC(C(=O)N4CCc5ccccc5C4)C3)ccc21 (stereo unspecified),3,-6,-19,-4,i,28,-7,4,
Cc1cccc(OCC2Cn3c(nc4c3c(=O)[nH]c(=O)n4C)O2)c1 (stereo unspecified),4,-7,-2,-21,i,-4,-4,2,
CCOC(=O)C1CCN(C(=O)C2CCC(=O)N(CC3CCCCC3)C2)CC1 (stereo unspecified),6,3,4,4,i,-5,4,-13,
COc1ccc2c(CCNC(=O)c3ccc([N+](=O)[O-])cc3)c[nH]c2c1,1,1,-1,1,i,5,-17,11,
CC1(C(=O)O)CCCN(C(=O)c2ccc3c(c2)C(C)(C)CCC3(C)C)C1 (stereo unspecified),·,-1,2,12,·,-2,·,·,
Cc1cc(Br)cc(Cl)c1OC(=O)c1ccncc1,4,-2,1,-45,i,-36,-2,17,
CCOC(=O)c1cc2c(nc1NC(=S)Nc1ccccc1)CC(C)(CC)OC2 (stereo unspecified),0,-4,-5,·,i,-3,3,-9,
COc1cccc(-n2c(SCC#N)nnc2-c2cnccn2)c1,3,12,9,-17,i,·,-6,-9,

# Hits appear at their usual frequency; any-hit rate near 3%.
